Mtb growth: M. tuberculosis H37Rv growth inhibitors, H37Rv strain (AID 1626). M. tuberculosis H37Rv growth inhibition; higher % means a stronger effect. 220,000 compounds, 0.95% hits. one-dose inhibition, % at 10 µM; IC50 in µM for titrated hits;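 active = confirmed in a dose series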;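 note: bacteria incubated seven days before Alamar blue readout; 0% = bacteria only wells and 100% = bacteria with antibiotic wells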
YopH inh: blocks Yersinia enterocolitica YopH tyrosine phosphatase. fluorescence Ex485/Em525. inhibition, %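 (about 10 µM by stock and volumes)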. 140,000 compounds, 0.16% hits;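 active = inhibition of 50% or more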;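 note: controls were vehicle for no effect and minimum signal wells for full effect; inactives centre near -20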
Mtb betalactam: beta-lactam sensitization of Mtb H37Rv | M. tuberculosis H37Rv growth with meropenem, percent inhibition; hits of this screen are not shown here | inhibition, % at 25 µM | 330,000 compounds, 0.27% hits;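 active = about 74% or more and at least 40 points above the plate without the antibiotic, then above 30% in a dose series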;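 note: growth measured after seven days incubation then overnight dye step; 0% = bacteria only wells and 100% = bacteria with antibiotic; twin plates without the antibiotic show which effects depend on it; some results filed as inactive read as strong as hits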
RecA splice inh: Mtb RecA intein splicing inhibition; P9WHJ3; 290,000 compounds, 0.75% hits; inhibition, %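 (about 9 µM by stock and volumes)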; cell-free RecA intein splicing, fluorescence; in the data active = inhibition above about 30%;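 note: 0% = vehicle wells and 100% = reference inhibitor control wells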
Target sequence (P9WHJ3 whole entry, looked up, canonical isoform): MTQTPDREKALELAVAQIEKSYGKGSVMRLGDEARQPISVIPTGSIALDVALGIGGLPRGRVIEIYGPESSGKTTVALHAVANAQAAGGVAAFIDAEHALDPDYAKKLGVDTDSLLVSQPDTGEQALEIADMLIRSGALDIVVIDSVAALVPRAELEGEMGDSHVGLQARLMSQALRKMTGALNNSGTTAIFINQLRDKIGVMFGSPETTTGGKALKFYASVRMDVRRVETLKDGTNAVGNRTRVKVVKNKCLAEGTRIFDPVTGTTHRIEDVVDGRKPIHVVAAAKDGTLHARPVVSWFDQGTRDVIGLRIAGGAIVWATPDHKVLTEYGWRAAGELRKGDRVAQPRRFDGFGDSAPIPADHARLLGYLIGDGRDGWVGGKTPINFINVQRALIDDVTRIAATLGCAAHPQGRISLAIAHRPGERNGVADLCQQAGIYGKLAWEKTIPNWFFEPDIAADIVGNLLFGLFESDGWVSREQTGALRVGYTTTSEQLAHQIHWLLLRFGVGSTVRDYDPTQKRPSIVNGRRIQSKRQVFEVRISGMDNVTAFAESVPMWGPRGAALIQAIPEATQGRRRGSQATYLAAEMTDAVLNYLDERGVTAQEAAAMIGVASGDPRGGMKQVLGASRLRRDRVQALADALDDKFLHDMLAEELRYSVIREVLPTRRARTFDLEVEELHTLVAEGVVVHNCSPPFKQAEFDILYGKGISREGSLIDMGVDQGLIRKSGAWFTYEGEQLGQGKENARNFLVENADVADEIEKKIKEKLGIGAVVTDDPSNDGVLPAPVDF
Arbovirus anti: antivirals against arbovirus infection; arbovirus infection cell-based antiviral screen; inhibition, % at 10 µM; 200,000 compounds, 0.37% hits; AID 1251;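 active = inhibition from about 30%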;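 note: bluetongue infection of BSR cells; cell survival read as ATP light after 72 h; 0% = infected wells without compound and 100% = uninfected wells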
Arbovirus anti repeat: second read-out of Arbovirus anti, no call of its own (marks repeat the call); inhibition, %; measured here: 10K subset replicate screen; many hits read low in the repeat;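 first of two repeat runs on a subset; 0% = infected and 100% = uninfected wells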
An asterisk follows results filed as active; · = no result given. Only part of the results is shown (hit frequency here may not be typical).

SMILES	Mtb growth	YopH inh	Mtb betalactam	RecA splice inh	Arbovirus anti	others
Cc1cc(NS(=O)(=O)c2ccc(NC(=S)NC(=O)c3ccc(Br)cc3)cc2)no1	0%	-18	8	12	2
Cc1ccc(NC(=S)NCc2ccc3c(c2)cc(C)n3C)c(C)c1	9%	·	2	5.3	0
O=C(NCCO)N1c2ccccc2Sc2ccccc21	·	·	-6	-3.0	·
CCC(=O)Nc1ccc(NC(=O)CSc2nnc(-c3ccc(O)cc3)n2CC2CCCO2)cc1 (stereo not drawn)	-1%	·	1	1.9	2
CCN(CC)C(=O)CSc1nc2cccnc2n1-c1ccccc1OC	1%	-13	-6	·	4
O=S(=O)(c1ccc(S(=O)(=O)N2CCC3(CC2)OCCO3)cc1)N1CCCC1	3%	·	5	-4.1	·
CC(=O)N(C)CC#CCN1CCCC(CO)C1 (stereo not drawn)	-2%	·	-12	-0.4	·
O=C(O)CCCC(=O)N1CCCC1	-6%	·	-4	-3.0	6
Cc1cc2c(cc(C(=O)OC(C(=O)NCc3ccco3)C(C)C)n2C)o1 (stereo not drawn)	1%	-18	-5	0.7	-2
O=C1NC(=O)C(CCc2ccncc2)(CCc2ccccn2)C(=O)N1c1ccc(Br)cc1 (stereo not drawn)	-4%	·	1	1.9	5
CCSc1nc(C)cc(Oc2ccc(=O)n(C)n2)n1	-2%	-23	-10	-1.5	1
COC(=O)c1sc2nc3c(cc2c1N)CCCC3	-4%	·	-5	0.9	2
CCn1c(SCC(=O)Nc2cc(C)ccc2C)nc2c(c1=O)SC(C)C2 (stereo not drawn)	-2%	-35	-1	-0.4	1	Arbovirus anti repeat=0
CN(C)c1ccc(/C=N/NC(=O)c2cccc(C(=O)N/N=C/c3ccc(N(C)C)cc3)n2)cc1	5%	·	1	3.4	-5
Cc1ccc(NC(=O)C(=O)NCC2CCCO2)cc1C (stereo not drawn)	-1%	·	-3	0.5	2
CC(=O)N1CCN(c2ccccc2NC(=O)COc2ccc(Cl)cc2Cl)CC1	10%	-20	30	-1.1	3
C=CCn1c(SCCN2CCCC2)nc2c([nH]c3ccccc32)c1=O	·	·	-2	-0.8	2
COC(=O)c1[nH]c2ccccc2c1NC(=O)CN1CCN(c2cccc(OC)c2)C(C)C1 (stereo not drawn)	-10%	-18	91	4.6	4
Oc1ccccc1C1=Nc2ccccc2N=C(c2ccco2)C1	8%	14	26	5.0	13
Cc1ccc2c(CC(=O)OCc3cc(=O)n4c(n3)sc3ccccc34)coc2c1	·	4	-1	-1.6	3
Cc1cc(NC(=O)/C=C/c2ccc(Cl)cc2)no1	10%	7	4	-1.2	-15
CCCCNc1nc2cccnc2s1	-5%	·	-6	-1.8	·
CSc1ccc(S(=O)(=O)NCC(=O)OCC(=O)NCC2CCCO2)cc1[N+](=O)[O-] (stereo not drawn)	·	·	0	-1.3	·
Cc1ccc(S(=O)(=O)N(C)c2ccc(C(=O)Nc3ccccc3C(=O)N3CCOCC3)cc2)cc1	·	·	-8	0.1	·
COc1cc(-c2nc(CN3CCCCC3CCNC(C)=O)c(C)o2)ccc1F (stereo not drawn)	1%	·	-1	-1.5	·
CC1=C(/C=C/C(C)=C/C=C/C(C)=C/C=C/C=C(C)/C=C/C=C(C)/C=C/C2=C(C)CCCC2(C)C)C(C)(C)CCC1	-12%	·	-4	6.8	·
Cc1cc2c(cc1S(=O)(=O)N1CCN(c3cccc(C)c3C)CC1)OCCN2C	·	·	-8	7.6	·
CCc1cccc2c(C(=O)CSc3nncn3C)c[nH]c12	-1%	·	-2	0.3	4
CCN1C(=O)/C(=C\N2CCN(C(=O)c3ccco3)CC2)SC1=S	-4%	·	-2	2.4	·
Cc1ccc(CNC(=O)C2CCN(S(=O)(=O)c3ccc4c(c3)OCCCO4)CC2)cc1	-2%	-14	-4	-2.0	5
COC(=O)c1ccc(CN(c2ccccc2OC)S(=O)(=O)c2cccs2)o1	6%	-38	2	3.8	4
O=C(NCCCN1CCN(Cc2ccccc2)CC1)C1CCN(c2nnc(-n3cccc3)s2)CC1	4%	-26	-12	0.7	-3
COc1ccc(-c2csc(N3C(=O)C4C5c6ccccc6C(c6ccccc65)C4C3=O)n2)cc1 (stereo not drawn)	49%	5	2	0.4	1
CCOc1ccc(C2C3=C(CCCC3=O)Nc3ccc4ncccc4c32)cc1 (stereo not drawn)	-4%	·	2	-7.1	·
CCS(=O)(=O)n1c(Cc2cccs2)nc2ccccc21	·	·	-4	-1.3	·
COc1cccc2c(=O)n(CC(=O)NC3CCCCC3)ccc12	3%	-46	-1	-1.8	8	Arbovirus anti repeat=-3
CCNc1nc(NC(C)(C)C)nc(N(CC)n2cnnc2)n1	-1%	-16	-1	-3.1	5
COc1ccc(CCN(C)C2CCCN(S(C)(=O)=O)C2)cc1OC (stereo not drawn)	·	·	5	-4.1	·
CCCSc1nnc(NC(=O)c2sc3nc(-c4cccs4)ccc3c2N)s1	1%	-36	·	-25	-8
CCN(CC)NC(=O)Nc1ccccc1	-12%	·	-2	-4.5	-1
Cc1ccc(S(=O)(=O)N2CCN(c3ccc(N4CCOCC4)nn3)CC2)cc1[N+](=O)[O-]	·	·	-2	-4.2	·
O=C(CSc1nnc(-c2ccccc2)n1-c1ccccc1)N1c2ccccc2Sc2ccccc21	·	-40	3	-0.5	-12
CC12CCC(=O)N1C(C(=O)NCc1ccccc1Cl)CS2 (stereo not drawn)	·	·	-13	-3.3	·
C=C(C)Cn1c(CCn2c3ccccc3c3ccccc32)n[nH]c1=S	13%	-7	-1	2.7	10
O=[N+]([O-])c1cccc(CN2CCN(Cc3ccco3)CC2)c1	·	·	3	-1.5	·
Oc1c(C(Nc2ccccn2)c2ccccn2)ccc2cccnc12 (stereo not drawn)	·	-33	58	4.2	-33
CCN(CC)C(=O)C1CCCN(c2ncnc3c2cnn3-c2ccc(Cl)cc2)C1 (stereo not drawn)	·	·	81	3.4	11	Arbovirus anti repeat=2
O=C(Nc1ccc2c(c1)nc1n2CCSC1)c1ccco1	-9%	-39	77	-0.7	0
c1cncc(-c2nn3c(Cn4cnc5ccccc54)nnc3s2)c1	-1%	-37	8	-1.4	5
Cc1cccc(OCCCC(=O)NCc2ccco2)c1	2%	-57	4	1.3	9
COc1nc(Nc2ccc(O)cc2)nc(OC(C(F)(F)F)C(F)(F)F)n1	2%	-24	-14	-8.3	-14
CCC1CCCCN1C(=O)CSc1nnc(-c2cccs2)o1 (stereo not drawn)	5%	16	23	1.2	2
O=C(CCC(=O)N1CCCCCC1)NCc1ccc(F)cc1	·	·	1	0.4	·
O=C(NCCc1ccc(Cl)cc1)C1CCN(S(=O)(=O)c2cccs2)CC1	-5%	-6	-2	-7.5	6
CC(C)NS(=O)(=O)c1ccc2c3c(cccc13)CC2	10%	·	1	-2.1	0
NNC(=O)CNS(=O)(=O)c1ccc([N+](=O)[O-])cc1	3%	·	-6	-3.0	1
COC(c1ccccc1)c1nnc(CCC(=O)NCc2cccc(-n3cccn3)c2)o1 (stereo not drawn)	0%	·	3	-0.1	6
COc1cccc(NC(=O)CSc2nnnn2C2CCCC2)c1	·	·	-1	-0.2	·
COc1ccc2nc(C)cc(SCC(=O)OC(C)C)c2c1	9.4µM*	·	79	-2.2	-2
C=C1N(c2cccc(Cl)c2)C(=O)OC1(C)C	-3%	·	3	·	-3

Carrying on.
SMILES	Mtb growth	YopH inh	Mtb betalactam	RecA splice inh	Arbovirus anti	others
Cc1ncc([N+](=O)[O-])n1S(=O)(=O)c1cc(Cl)ccc1Cl	·	·	1	-1.1	·
Cc1cc(S(=O)(=O)NC(C)C)ccc1OCC(=O)Nc1ccc2c(c1)OCCO2	0%	·	2	0.1	4
Cc1cc(C)c2[nH]c(=O)c(CN(Cc3cccs3)C(=S)NCC3CCCO3)cc2c1 (stereo not drawn)	-4%	-37	-5	5.4	13
CCOc1ccc(CCNC(=O)c2cccnc2N2CCCC2)cc1OCC	-7%	-16	-9	-0.9	-3
O=S(=O)(Nc1ccc(N2CCCCC2)cc1)c1ccccc1	6%	-11	-6	0.0	7
O=C(Nc1ccc(Br)cc1)c1cc(-c2cccs2)on1	·	·	-6	1.1	·
Cn1c2ccccc2n2c(=O)c(=O)n(CC(=O)N3CCCc4ccccc43)nc12	1%	·	0	-3.6	-1
O=C(CSc1nnc(-c2cccnc2)n1Cc1ccco1)N1CCc2ccccc21	-2%	-26	-8	·	-9
O=C(COC(=O)c1c[nH]c(=O)[nH]c1=O)NCc1ccccc1	-2%	-11	-10	-1.0	-4
Cc1[nH]c2ccccc2c1C(=O)CSc1ccccn1	0%	·	2	·	2
CCCCC(=O)N/N=C/c1c(O)n(-c2ccccc2)c(=O)[nH]c1=O	-8%	·	7	-1.0	·
O=C(COC(=O)Cc1ccccc1F)Nc1cccc(S(=O)(=O)NC2=NCCCCC2)c1	-1%	·	0	0.5	-3
O=C(NC(N1CCOCC1)C(Cl)(Cl)Cl)c1cc([N+](=O)[O-])cc([N+](=O)[O-])c1 (stereo not drawn)	-9%	·	-4	·	5
CCOC(=O)N1CCC(N(CCN(C)C)C(=S)Nc2cc(C)ccc2C)CC1	0%	-5	12	1.5	4
CCOP(=O)(OCC)C(NC(=O)c1ccccc1)=C(Cl)Cl	8%	-27	0	-1.9	4
COc1ccc(NC(=O)N2CCC3(CC2)OCCO3)cc1	-2%	·	-10	3.8	0
CCC(C)Oc1cccc(C(=O)Nc2ccccc2N2CCOCC2)c1 (stereo not drawn)	7%	-32	5	0.0	11
CCCN(C(=O)c1ccco1)c1nnc(-c2ccccc2C)s1	-12%	·	9	0.9	-6
COc1ccccc1CNS(=O)(=O)c1ccc(Cl)s1	·	·	4	2.8	·
Cc1nc2ccccc2n1CC(=O)NN	6%	·	0	-0.8	2
COc1ccccc1OCCCn1cc(C(C)=O)c2ccccc21	-7%	·	-4	2.9	-1
O=C(NCC1CCCO1)C1CCN(S(=O)(=O)c2ccccc2)CC1 (stereo not drawn)	-8%	·	-6	-3.0	3
CN(C)S(=O)(=O)c1ccc(Cl)c(C(=O)NCC2CCCCC2)c1	·	·	3	4.4	·
CCCc1c(O)nc(SCC(=O)O)[nH]c1=O	-3%	·	3	0.9	6
COc1ccc(/C=C2\CCc3ccccc3C2=O)cc1CN1CCOCC1	-3%	·	-11	3.4	·
Cc1cc(C)cc(-n2ncc3c2CCCC3NC(=O)c2csnn2)c1 (stereo not drawn)	·	·	-5	-0.4	·
CC1=NN(Cc2ccccc2)C(=O)C1C(c1ccncc1)C(C#N)C#N (stereo not drawn)	·	·	-2	68*	·
CCNC(=O)N1CCCC(C(=O)c2ccc(-c3ccccc3)cc2)C1 (stereo not drawn)	·	·	-2	-1.2	·
Cc1cccc2c1cnn2C(=O)CCC(=O)N1CCC(C)CC1	·	·	-7	-0.3	·
O=C1CC(c2nc3ccccc3[nH]2)CN1c1cccc(C(F)(F)F)c1 (stereo not drawn)	3%	-17	2	-0.3	-3	Arbovirus anti repeat=-2
O=C(NNC(=O)c1ccc(-n2cncn2)c([N+](=O)[O-])c1)c1cccc(Cl)c1	·	·	-1	-3.5	·
CC(=O)Cn1cnc2sc(-c3ccccc3)cc2c1=O	8%	-25	-3	1.3	3
Cc1ccc(S(=O)(=O)N(CC(=O)Nc2ccccc2)C(=O)N2CCN(C)CC2)cc1	·	·	-10	1.4	·
Cc1cc2c3c([nH]c2cc1S(=O)(=O)NCc1ccc(CN2CCCCCC2)o1)CC(C)(C)CC3=O	·	·	5	-2.0	·
COc1ccc(NC(=O)c2ccc(S(=O)(=O)N3CCOCC3)o2)cc1	-8%	·	-6	0.0	·
Cc1nn(CC(=O)NCCCc2ccccc2)c(=O)c2cc3occc3n12	·	·	6	-0.9	·
COc1ccc(NC(=O)CS(=O)c2cccc(Cl)c2)cc1 (stereo not drawn)	·	·	0	0.1	·
COC/C=C/C1=CC2=CC(=O)C(C)(OC(=O)c3cnc4ccccc4n3)C(=O)C2=CN1CCc1c[nH]c2ccccc12 (stereo not drawn)	-2%	·	-3	8.6	·

Compounds from the list above that have fluorine:
SMILES	Mtb growth	YopH inh	Mtb betalactam	RecA splice inh	Arbovirus anti	others
COc1cc(-c2nc(CN3CCCCC3CCNC(C)=O)c(C)o2)ccc1F (stereo not drawn)	1%	·	-1	-1.5	·
COc1nc(Nc2ccc(O)cc2)nc(OC(C(F)(F)F)C(F)(F)F)n1	2%	-24	-14	-8.3	-14
O=C(CCC(=O)N1CCCCCC1)NCc1ccc(F)cc1	·	·	1	0.4	·
O=C(COC(=O)Cc1ccccc1F)Nc1cccc(S(=O)(=O)NC2=NCCCCC2)c1	-1%	·	0	0.5	-3
O=C1CC(c2nc3ccccc3[nH]2)CN1c1cccc(C(F)(F)F)c1 (stereo not drawn)	3%	-17	2	-0.3	-3	Arbovirus anti repeat=-2

Bioassay records from PubChem.
